From PubChem BioAssay
Cruzain Triton: inhibitors of Trypanosoma cruzi cruzain with detergent. Potency, µM, for the others: max response, negative = inhibition, most hits filed as inhibitors. P25779. purified cruzain, Z-FR-AMC fluorescence, 0.01% Triton. 200,000 compounds, 0.43% hits;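 also: plate controls were neutral wells for no effect and buffer without enzyme for full effect; nearly all actives have a fitted effect of over 40% in size; top concentration of the series not given in the record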
Target sequence (P25779 123-467 limits assumed): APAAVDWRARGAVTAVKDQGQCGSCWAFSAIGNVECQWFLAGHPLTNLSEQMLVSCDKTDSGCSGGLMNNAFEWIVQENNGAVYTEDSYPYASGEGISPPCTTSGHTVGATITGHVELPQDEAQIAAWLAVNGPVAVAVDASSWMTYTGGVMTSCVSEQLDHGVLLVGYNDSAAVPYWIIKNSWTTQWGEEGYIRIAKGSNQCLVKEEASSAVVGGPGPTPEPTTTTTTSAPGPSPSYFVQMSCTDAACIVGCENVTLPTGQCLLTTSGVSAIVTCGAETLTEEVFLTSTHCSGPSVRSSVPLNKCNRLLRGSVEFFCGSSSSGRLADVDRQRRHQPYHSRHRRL
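Z-FR-AMC hydrolysis (2 uM substrate) by cruzain (1.5 nM) monitored kinetically at ex 360/em 450 nm after 15 min room-temperature compound exposure; 0.01% Triton X-100, pH 5.5, 5 mM DTT.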
Lassa entry inh: inhibitors of Lassa virus binding or cell entry | Lassa virus pseudotype entry inhibition, cell reporter; control for the full effect not named in the record | Potency, µM (series often up to 37.9 µM), without a hit: at the highest dose activity change, negative = inhibition, actives largely listed as inhibitors | 300,000 compounds, 1.2% hits | AID 540256; active means well fitted inhibition curve with a large enough effect; inconclusive means small, poorly fitted or top-dose-only effect, or effect the other way; inactive means flat fitted curve, though single readings scatter; tested in HEK293 cells; also: % is scaled to controls: 0 for no effect and ±100 for the full control effect; nearly all actives have a fitted effect of over 50% in size; luciferase read-out
NS1 function inh: influenza NS1 inhibition. S. cerevisiae slowed by influenza A NS1, growth recovery by OD600. Potency, µM (doses to about 46.1 µM), for inactives: top-dose activity, positive = more growth. 270,000 compounds, 0.4% hits. AID 2326; active means well fitted rising curve with a large enough effect; inconclusive means small, poorly fitted or top-dose-only effect; inactive means no such curve, though single readings can be large or run the other way; also: nearly all actives have a fitted effect of over 50% in size
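In this qHTS, NS1 from influenza A is expressed in budding yeast, where it slows growth. Cells are switched from glucose to 2% galactose medium (pH 6.0, -URA), treated with compound, and growth recovery is read at OD600.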
Cruzain inh noDet: inhibitors of Trypanosoma cruzi cruzain without detergent; P25779; purified cruzain, Z-FR-AMC fluorescence, no detergent; Potency, µM, for the others: max response, negative = inhibition, hits mostly inhibitors; 200,000 compounds, 2.3% hits;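 also: plate controls were enzyme without inhibitor for no effect and buffer without enzyme for full effect; nearly all actives have a fitted effect of over 40% in size; top concentration of the series not given in the record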
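Detergent-free condition (0.00005% Triton X-100) in acetate buffer pH 5.5 with DTT. 1.5 nM enzyme and compound were pre-mixed 15 min, then 2 uM Z-FR-AMC substrate added; reaction progress from fluorescence change between first and third reads (60 s).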
StopGo reporter: lowers the luciferase signal of an FMDV 2A StopGo reporter | human cells with a luciferase reporter of 2A StopGo recoding; control for the full effect not named in the record | 410,000 compounds, 1.2% hits | Potency, µM (top dose mostly 57.9 µM), without a hit: at the highest dose signal change, negative = less light; active = well fitted falling curve with a large enough effect; inconclusive = small, poorly fitted or top-dose-only effect; inactive = no such curve, though single readings can be large or run the other way; tested in HEK293T cells; also: % is scaled to controls: 0 for no effect and ±100 for the full control effect; nearly all actives have a fitted effect of over 45% in size; luciferase light after 4 h
MARV entry inh: inhibitors of Marburg virus binding or cell entry | Marburg virus pseudotyped entry inhibition, cell reporter; control for the full effect not named in the record; about a third of the inactives were read at about 46 µM | Potency, µM (top dose mostly 37.8 µM), for inactives: top-dose activity change, negative = inhibition, hits mostly inhibitors | 300,000 compounds, 1.8% hits | AID 540276; active = well fitted inhibition curve with a large enough effect; inconclusive = small, poorly fitted or top-dose-only effect, or effect the other way; inactive = flat fitted curve, though single readings scatter; tested in HEK293 cells; about a fifth of its hits are not listed in these tables; also: % is scaled to controls: 0 for no effect and ±100 for the full control effect; luciferase read-out
RE007 growth inh: less growth of the S. pombe RE007 Vpr strain; Potency, µM (highest dose often 92.2 µM), for the others: at the highest dose activity change, negative = less growth; S. pombe RE007 Vpr strain, BacTiter-Glo ATP luminescence, 24 h; control for the full effect not named in the record; 360,000 compounds, 0.21% hits; active = well fitted falling curve with a large enough effect; inconclusive = small, poorly fitted or top-dose-only effect; inactive = no such curve, though single readings can be large or run the other way;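 also: % is scaled to controls: 0 for no effect and ±100 for the full control effect; nearly all actives have a fitted effect of over 50% in size; the assay follows cell death caused by Vpr and the record does not say whether a fall means rescue or toxicity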
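Fission yeast RE007 carrying one integrated HIV-1 vpr copy, seeded at OD 0.01 in PMG+AL medium with 23 nL pinned compound. Grown 24 h at 30 degrees; viability read by BacTiter-Glo luminescence after 5 min.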
SARS PLpro yeast: blocks SARS-CoV papain-like protease in a yeast assay; 330,000 compounds, 0.19% hits; Potency, µM (series often up to 32.9 µM), for inactives: top-dose activity, positive = growth rescue; AID 485353; S. cerevisiae expressing SARS-CoV PLpro, growth rescue; control for the full effect not named in the record; active means well fitted rising curve with a large enough effect; inconclusive means small, poorly fitted or top-dose-only effect; inactive means no such curve, though single readings can be large or run the other way; also: 0% is about no effect; nearly all actives have a fitted effect of over 55% in size; growth read by luminescence after 48 h
The depositor's hits bear a star; ? = inconclusive; / = no result given; & = joins results of further samples; [ ] = remark or other dose. Unless noted, calls follow the shape of the dose curve; as a rule, active = well fitted curve in the direction sought with a large enough effect; inconclusive = small, poorly fitted or top-dose-only effect, or another doubt; inactive = no such curve, though single readings can be large; an effect the other way counts as inactive or inconclusive. Potency is read from the fitted curve at half-maximal effect.

SMILES | Cruzain Triton | Lassa entry inh | NS1 function inh | Cruzain inh noDet | StopGo reporter | MARV entry inh | RE007 growth inh | SARS PLpro yeast
CN(c1ccccc1)S(=O)(=O)c1ccc(C(=O)Nc2nnc(-c3ccc(F)cc3)o2)cc1 | 5.5% | -10.1% | 3.3% | -25.6% | -20.4% | ? | 6.9% | 0.9%
Cc1ccc(-c2n[nH]c3c2C(c2cccs2)N(c2ccc(Cl)cc2)C3=O)cc1 (centres undefined) | -8.5% | ? | / | ? | ? | ? | / | /
Cc1cc(C)n2nc(C(=O)OCC(=O)N(C)Cc3ccccc3)nc2n1 | / | -17.4% | / | / | -6.7% | -0.7%[46.1 µM] | -17.5% | -3.2%
CCOC(=O)c1sc2nc(CSc3ccccc3)nc(NCCN(C)C)c2c1C | / | ? | / | / | -21.9% | ? | 2.2% | -1.6%
N#Cc1nc(Cc2ccccc2)oc1NCCc1ccccc1 | -5.3% | ? | -96.0% | -6.5% | 53.1%[activator] | ? | -7.6% | -16.7%
Cc1ccc(-n2c(=O)[nH]c3cc(C(=O)NCCc4ccccc4)ccc3c2=O)cc1 | -1.3% | -9.2%[46.1 µM] | / | 15.8µM* | -13.2% | -0.9%[46.1 µM] | / | /
COCCn1c(C(C)C)nc2oc3ccccc3c(=O)c2c1=O | -0.4% | -17.2% | -28.4% | 1.7% | -23.2% | -7.5% | 15.6% | -2.7%
Cc1ccc2nc(NC(=O)C3CCN(S(=O)(=O)c4cccc5nsnc45)CC3)sc2c1 | -5.7% | ? | -40.4% | ? | ? | ? | -19.7% | 6.7%
N#Cc1cnc2nc(SCc3ccccc3)nn2c1 | / | ? | 1.4% | / | 1.9% | ? | 0.1% | -1.8%
CCc1ccccc1NC(=O)N1CCN(Cc2nc3ccc(C)cc3o2)CC1 | -0.4% | -1.5%[46.1 µM] | / | 8.1% | ? | / | / | /
CN1CCN(C(=O)CSc2nc(-c3ccncc3)ccc2C#N)CC1 | -4.6% | -6.8% | 7.5% | 2.0% | -16.4% | 3.0% | -5.0% | -3.5%
COc1ccc(C(=O)Nc2cc(-c3nc4ncccc4o3)ccc2C)cc1Br | -0.6% | -10.2%[46.1 µM] | / | 2.7% | -9.5% | / | / | /
COCCN(CCOC)C(=O)c1cc2c(=O)n3ccccc3nc2n1C | -4.2% | 1.3%[46.1 µM] | / | -14.7% | 3.8% | / | / | /
Cn1c(=O)c2c(nc(N3CCOCC3)n2CCCNC2=NCCC2)n(C)c1=O | -3.6% | 5.1% | 3.4% | -1.9% | 0.0% | -11.1% | -10.8% | -1.5%
C=CCc1cc(Cl)ccc1OCCOCCNCCOC | -2.3% | -12.2% | -9.4% | -9.6% | -18.3% | ? | -1.4% | -6.1%
CCOc1ccc(NC(=O)[C@@H](NC(=O)OCc2ccccc2)[C@@H](C)CC)cc1 | 2.4% | ? | -4.9% | -24.9% | -9.4% | -3.4% | 9.7% | 7.4%
COc1ccc(NC(C)=O)cc1NC(=O)CCn1c(=O)sc2ccccc21 | -1.2% | 17.4% | -3.2% | 7.6% | 5.8% | 15.3% | -1.4% | 7.9%
Cc1ccc(NC(=O)CN(C)C(=O)C(C)N2CCN(Cc3ccccc3C)CC2)cc1 (centres undefined) | / | 0.3% | / | / | -20.9% | -23.0% | 3.3% | -1.1%
COc1ccc(Br)cc1CN1C(=O)NC2(CCCCCC2)C1=O | / | 4.3% | -32.1% | / | -3.0% | -4.2%[46.1 µM] | 2.6% | -1.4%
COc1cc(NC(=O)c2cccs2)c(C(=O)OCC(=O)c2cc(C)n(-c3ccc(F)cc3)c2C)cc1OC | -2.5% | ? | 10.9% | 3.98µM* | ? | ? | -4.4% | 5.1%
C=CCCCCc1nc2ccccc2c(=O)n1N | -2.7% | -2.6% | -7.9% | -15.3% | 7.6% | -19.9% | 16.6% | 1.8%
N#Cc1ccc(/C=C\c2nccc3c2[nH]c2ccccc23)cc1 | / | 15.3% | / | / | 0.0% | ? | 14.2% | -5.1%
COc1ccc(CN(C)C(=O)Cn2ccsc2=N)cc1OC | / | 4.2%[46.1 µM] | -0.8% | / | -7.8% | -5.2%[46.1 µM] | -28.9% | -0.1%
CCCS(=O)(=O)Nc1cccc(-c2cn3ccsc3n2)c1 | -3.2% | 11.7%[46.1 µM] | / | -14.1% | 29.6% | / | / | /
CCOC(=O)C1=C(c2ccccc2)NC(=O)NC1c1cc(Br)c(O)c(OC)c1 (centres undefined) | / | ? | / | / | -15.9% | ? | 6.1% | -0.3%
COc1ccccc1C(=O)NCC(=O)N/N=C/c1ccc([N+](=O)[O-])cc1 | / | -16.9% | / | / | -26.0% | 0.4% | -1.0% | -0.3%
C[C@@H]1Cc2c(O)c(O)cc(O)c2C(=O)O1 | / | / | -0.7% | / | -10.2% | / | 14.0% | -0.9%
O=C(Cn1cc(C(=S)N2CCOCC2)c2ccccc21)N1CCOCC1 | -8.2% | 0.7% | -4.7% | -7.8% | -2.0% | 22.7%[46.1 µM] | 11.4% | /
S=C(Nc1ccccc1Cl)N(CCCN1CCOCC1)Cc1ccccn1 | / | -1.3% | / | / | -1.5% | 0.4%[46.1 µM] | -25.3% | -0.9%
O=C1NC(=S)NC(=O)C1c1ccccc1 | / | 9.1%[46.1 µM] | / | / | -5.9% | 3.1%[46.1 µM] | 0.9% | /
O=C(Nc1ccc2c(c1)OCCO2)C1CCN(c2nnnn2-c2ccccc2)CC1 | -1.1% | ? | -10.6% | 15.1% | ? | -27.1% | 2.1% | -0.1%
Cc1cc(/C=N/NC(=O)c2cccs2)c(C)n1-c1cnccn1 | / | / | -0.7% | / | 43.5%[activator] | / | 0.6% | -3.7%
N#CC1(NC(=O)COc2ccc3ccc(=O)oc3c2)CCCCC1 | / | -17.8% | / | / | -7.7% | -11.8% | -6.8% | /
COc1cccc(NC(=O)C2(S(=O)(=O)c3ccc(Cl)cc3)CC2)c1 | / | 14.9% | 1.8% | / | -25.0% | 4.2%[46.1 µM] | -10.7% | 0.9%
O=C(NN1C(=O)C2C3C=CC(C4CC34)C2C1=O)c1ccc(Cl)cc1 (centres undefined) | 8.7% | 14.2% | -2.2% | 10.6% | -22.2% | 7.5% | -8.7% | ?
O=C(C1CCCN(Cc2ccncc2)C1)N1CCc2ccccc2C1 (centres undefined) | -3.0% | 4.2% | -2.9% | -9.1% | -21.7% | ? | -7.2% | 0.1%
O=C(O)CCCCCNC(=O)c1ccncc1 | 4.6% | 11.0% | 5.6% | 0.5% | -3.8% | ? | -5.1% | -11.3%
c1ccc(Cn2ncc3c(NCc4ccco4)ncnc32)cc1 | 0.7% | ? | -6.3% | -0.5% | / | ? | -1.6% | 3.8%
O=C(CN(Cc1ccccc1F)S(=O)(=O)c1ccc(Cl)cc1)NCCCO | 5.7% | / | -4.2% | 2.9% | 0.0% | / | 11.5% | -1.1%
CCN(CC)C(=O)c1ccc(NC(=S)NC(=O)CCc2ccccc2)cc1 | / | ? | -19.8% | / | 4.1% | ? | 5.8% | -2.3%
CCOC(=O)c1c(C)[nH]c(C)c1C(=O)COC(=O)/C=C/c1ccc(OC(F)F)cc1 | -9.0% | 11.2µM* | -14.8% | 3.0% | ? | ? | 2.0% | -45.4%
OCCn1c(SCCOc2ccccc2)nc2ccccc21 | -1.2% | -8.5% | -52.9% | 8.0% | / | ? | -13.1% | -0.7%
O=C1CN(C(=O)COc2ccc(Cl)cc2Cl)C(c2ccccc2)c2cc(F)ccc2N1 (centres undefined) | -6.2% | ? | / | -23.3% | ? | ? | / | /
c1nc(NCCN2CCOCC2)c2sc3nc(N4CCOCC4)c4c(c3c2n1)CCC4 | -9.7% | -10.1% | -10.1% | 3.4% | 1.6% | ? | -15.9% | 3.7%
NS(=O)(=O)c1ccc(NC(=S)NC2CCCCCC2)cc1 | -4.9% | ? | -3.1% | -6.8% | 37.7%[activator] | 30.6% | 29.1% | 4.2%
CCCCn1c(=NC(C)=O)c(C#N)cc2c(=O)n3cccc(C)c3nc21 | / | 2.8% | / | / | -19.6% | -2.5%[46.1 µM] | 3.8% | /
CCc1cccc(NC(=O)CCS(=O)(=O)c2cccc3nonc23)c1 | -3.3% | ? | -2.8% | 2.5% | 25.7% | -3.4%[46.1 µM] | 3.3% | 3.2%
O=C(Nc1ccc(O)cc1)c1ccc2c(c1)C(=O)N(N1C(=O)c3ccccc3C1=O)C2=O | / | / | 11.5% | / | ? | / | 4.0% | -1.5%
NC(=O)NC(Cc1ccccc1)C(=O)NCCCSc1ccccc1 (centres undefined) | / | 0.3%[46.1 µM] | -6.1% | / | 3.9% | ? | 8.5% | 0.1%
CCOc1ccc(Cn2c(=O)oc3ccc(C)cc32)cc1OC | -0.2% | -28.9% | -18.4% | 13.1% | -26.4% | -9.0% | 21.2% | -1.8%
Cn1cc(Cl)c(C(=O)OCC(=O)Nc2ccc(S(N)(=O)=O)cc2)n1 | / | -0.5% | -2.5% | / | -19.8% | 0.7%[46.1 µM] | -7.3% | -6.2%
O=C1CN(C(=O)c2ccc(S(=O)(=O)N3CCCCC3)cc2)C(c2ccc(F)cc2)c2cc(F)ccc2N1 (centres undefined) | -5.4% | -8.9%[46.1 µM] | / | -1.8% | -2.3% | ? | / | /
CCn1c(/C(C#N)=N/O)nc2ccccc21 | -7.4% | 1.1% | ? | -13.8% | 0.0% | -5.0% | 5.1% | 7.3%
CC(O)CCC(=O)NNC(=S)Nc1ccccc1 (centres undefined) | / | -12.2%[46.1 µM] | 0.5% | / | 58.8%[activator] | 24.7%[46.1 µM] | 14.4% | /
O=C(C1CCN(S(=O)(=O)c2ccc(Br)s2)CC1)N1CCN(c2ccccc2)CC1 | -2.9% | ? | 5.0% | 19.1% | 37.1%&-29.8%[activator] | ? | 10.6% | -3.3%
O=C(O)c1cccc(S(=O)(=O)Nc2ccc(S(=O)(=O)N3CCOCC3)cc2)c1 | / | 2.4% | / | / | -18.9% | -3.4%[46.1 µM] | 0.0% | 5.0%

The order is random (roughly 4.5% active in at least one column).
